Compound activity from PubChem.
GLA inh pH 4.5: qHTS Assay for Inhibitors of Human alpha-Galactosidase at pH 4.5 | Alpha-galactosidase A (Homo sapiens), P06280 | purified enzyme, 4-MU-alpha-Gal fluorescence, pH 4.5 | 230,000 tested, under 10 active | activity change, negative = inhibition, % at 105 µM; inconclusive = small, poorly fitted or top-dose-only inhibition, or a rising curve; inactive = flat fitted curve, though single readings scatter; no compound was filed as active;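 note: 0% = full activity with enzyme and -100% = basal without enzyme; dose as in the result columns while the protocol names 77 µM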
miR-21 FLuc: qHTS Assay for Modulators of miRNAs and/orActivators of miR-21; HeLa miR-21 FLuc reporter, luciferase, 48 h; Potency, µM (titrated, usually from 38.3 µM), without a hit: at the top dose reporter change, positive = more light; 340,000 tested, under 10 active; AID 2288, 2010; active = well fitted rising curve with a large enough effect; inconclusive = small, poorly fitted or top-dose-only effect; inactive = no such curve, though single readings can be large or run the other way;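 note: % of control where 0% means no effect; miR-21 action dims this reporter so a rising signal means less miR-21 action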
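HeLa cells stably expressing CMV-driven firefly luciferase with a downstream miR-21 binding sequence, endogenously expressing miR-21, were treated with titrations (up to about 40uM final) for 48 hours at 37 degree Celsius. Luciferase luminescence was read after lysis.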
Rango dissoc inh: qHTS Assay for Inhibitors of RanGTP induced Rango (Ran-regulated importin-beta cargo) - Importin beta complex dissociation; Biochemical FRET Rango-importin beta, RanGTP-induced dissociation; 0.071% of 340,000 active; Potency, µM (series often up to 46.1 µM), without a hit: top-dose activity change, negative = inhibition; Snurportin-1 (Homo sapiens) + GTP-binding nuclear protein Ran (Homo sapiens) + Importin …; active means falling FRET ratio curve, often poorly fitted, with flat reads before Ran was added; inconclusive means other falling curves, or compound fluorescence or quenching; inactive means flat or rising ratio curve;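 note: potency is the fitted concentration of half-maximal effect; % of control where 0% means no effect; nearly all actives have a fitted effect of over 45% in size; -100% = wells without RanGTP and RCC1; the record marks most hits as doubtful in a second field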
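Two FRET readings bracket the reaction: one 5 min after compound meets Rango–importin beta, another 45 min after RanGTP-RCC1 (0.6 uM Ran, 0.2 uM RCC1, 2 mM GTP) is added. Only the second defines inhibition.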
Rango complex inh: qHTS Assay for Inhibitors of Rango (Ran-regulated importin-beta cargo) - Importin beta complex formation. Importin subunit beta-1 (Homo sapiens), Q14974. Rango CFP/YFP FRET sensor + importin beta, 45 min. Potency, µM (series often up to 92.2 µM), without a hit: at the highest dose inhibition of complex formation. 0.031% of 340,000 active; active = rising FRET ratio curve, often small or poorly fitted; inconclusive = mostly compound fluorescence or quenching in the first reads; inactive = flat curves in all reads;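 note: potency is the fitted concentration of half-maximal effect; 0% = DMSO wells and 100% = buffer wells lacking importin beta; nearly all actives have a fitted effect of over 15% in size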
Target sequence (Q14974 whole entry, looked up): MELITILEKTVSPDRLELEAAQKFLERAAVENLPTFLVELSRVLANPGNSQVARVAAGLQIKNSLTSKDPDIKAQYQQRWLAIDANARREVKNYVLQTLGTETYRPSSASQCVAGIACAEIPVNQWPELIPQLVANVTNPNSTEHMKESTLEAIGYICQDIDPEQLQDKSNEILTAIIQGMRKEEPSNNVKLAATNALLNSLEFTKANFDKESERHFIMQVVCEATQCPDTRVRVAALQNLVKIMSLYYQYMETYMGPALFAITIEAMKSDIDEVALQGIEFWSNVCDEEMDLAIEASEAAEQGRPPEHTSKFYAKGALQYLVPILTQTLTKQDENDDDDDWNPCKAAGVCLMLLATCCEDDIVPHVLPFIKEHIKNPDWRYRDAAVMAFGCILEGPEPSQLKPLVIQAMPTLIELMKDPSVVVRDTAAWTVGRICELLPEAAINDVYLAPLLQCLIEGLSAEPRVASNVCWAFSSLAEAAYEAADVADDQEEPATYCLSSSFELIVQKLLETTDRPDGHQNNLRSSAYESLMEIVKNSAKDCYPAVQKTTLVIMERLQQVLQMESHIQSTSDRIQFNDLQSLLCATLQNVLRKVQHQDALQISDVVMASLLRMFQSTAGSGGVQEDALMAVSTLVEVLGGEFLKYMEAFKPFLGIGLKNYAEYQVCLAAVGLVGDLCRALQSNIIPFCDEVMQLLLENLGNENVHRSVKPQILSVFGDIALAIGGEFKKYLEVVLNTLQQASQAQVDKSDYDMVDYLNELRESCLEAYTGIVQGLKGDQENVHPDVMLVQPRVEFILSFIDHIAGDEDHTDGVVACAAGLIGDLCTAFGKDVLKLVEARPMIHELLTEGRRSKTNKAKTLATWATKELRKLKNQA
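FRET biosensor Rango (snurportin 1 IBB between N-terminal EYFP and C-terminal Cerulean), 50 nM in PBS/1 mM DTT/0.02% Tween-20/0.1% BSA, preincubated 5 min RT with compound; 0.125 microM importin beta added, 45 min RT, CFP/YFP FRET ratio read.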
Starred values were filed as active, the others as inactive; ? = inconclusive; · = not tested or not shown; & = joins results of further samples. The list is partial, so the mix of outcomes need not match the whole.

SMILES	GLA inh pH 4.5	miR-21 FLuc	Rango dissoc inh	Rango complex inh
CC1(C)Oc2c(ccc(O)c2CN2CCOCC2)C2=C1CCCC2	·	·	-10%	-0.2%
O=C(O)CC(c1ccccc1)n1cnnn1 (centres undefined)	6	0%	-4%	1.8%
COc1ccc([C@@H]2[C@@H]3C(=O)N(C(C)(C)C)C(=O)[C@@H]3[C@]3(Cc4ccc(Cl)cc4)C(=O)N(c4cccc(Br)c4)C(=O)N23)cc1	·	3%	-5%	-0.8%
COc1ccc(NC(=O)COC(=O)c2ccc(S(=O)(=O)N3CCCCCC3)cc2)c(OC)c1	·	·	7%	1.8%
O=C(CSc1nnc2c(n1)[nH]c1ccccc12)NCc1ccco1	10	0%	14%	-0.7%
O=C1CN(C(=O)N[C@@H](Cc2ccccc2)C(=O)N[C@H](C(=O)O)c2ccccc2)c2ccccc2N1	·	1%	-5%	0.0%
c1ccc(-c2[nH]ncc2CN2CCc3ccccc3C2)cc1	0	-1%	3%	-0.1%
CCc1ccccc1NC(=O)CSc1nnc([C@H](CCSC)NC(=O)OC(C)(C)C)o1	2	7%	4%	-1.2%
COc1ccc(CCn2c(N)cc(=O)[nH]c2=O)cc1OC	-6	-5%	-8%	-5.4%
COC(C(=O)NC1CC1)c1ccccc1 (centres undefined)	6	-1%	2%	-0.5%
CCCOc1ccc(C2=CC(=O)C[C@H](c3ccc(OC)cc3)C2)cc1	·	·	-10%	4.7%
S=C(NCc1ccccc1)NN1CCOCC1	-8	-2%	-2%	-1.2%
O=C(CN1C(=O)CSc2ccccc21)Nc1ccccc1C(=O)N1CCOCC1	0	-3%	-14%	2.4%
CN1CCc2c(sc(NC(=O)c3cc4cc([N+](=O)[O-])ccc4s3)c2C(N)=O)C1	-21	?	·	·
CCOc1ccc(CCNC(=O)C2CCCN(C(=O)N(C)C)C2)cc1OCC (centres undefined)	-6	-5%	-8%	-1.5%
O=[N+]([O-])c1ccc(COn2nnc3ccccc32)cc1	5	-20%	11%	-2.8%
Cn1c(=O)c2c(nc(OCc3ccccc3)n2C)n(C)c1=O	-5	0%	30%	1.8%
CC(=O)NC(C(=O)NCC(N)=O)C(C)C (centres undefined)	·	-5%	3%	-3.3%
CCOC(=O)N1CCN(c2c(-c3ccc(C)cc3)c(=O)c2=O)CC1	-2	-6%	-19%	0.5%
CCOc1ccc(N(CC(=O)N2CCCC2)S(=O)(=O)c2ccc(F)cc2)cc1	·	-2%	13%	-0.2%
COC(=O)[C@@H](Cc1ccccc1)N(Cc1ccccc1)S(=O)(=O)N(Cc1ccccc1)[C@H](Cc1ccccc1)C(=O)OC	·	·	19%	-0.6%
O=C(/C=C/c1ccc2c(c1)OCO2)NCCS(=O)(=O)N1CCN(c2ccc(F)cc2)CC1	·	·	-2%	-3.8%
COc1ccccc1N1CCN(C(=O)CN(Cc2ccccc2)S(C)(=O)=O)CC1	-2	2%	2%	2.5%
CSc1cccc(NC(=S)N2CCC(N(C)C3CCCCCC3)CC2)c1	-4	6%	-10%	4.0%
CN(C)CCCNCC(=O)NN(c1ccccc1)c1ccccc1	-4	-1%	1%	0.7%
The list continues:
SMILES	GLA inh pH 4.5	miR-21 FLuc	Rango dissoc inh	Rango complex inh
Cc1ccc(C(=O)COC(=O)COc2ccc(C)c(C)c2)cc1	·	0%	-12%	-0.4%
CC(NC(=O)C(=O)N1CCOCC1)C(c1cccs1)N1CCN(c2ccc(F)cc2)CC1 (centres undefined)	·	4%	9%	-0.2%
COCCN(C(=O)CNC(=O)c1ccco1)C(C(=O)NC1CCCC1)c1cccs1 (centres undefined)	-8	-6%	10%	3.9%
O=C(/C=C/c1ccccc1)NC1CC2CCCC(C1)N2Cc1ccccc1 (centres undefined)	13	-2%	·	·
COC(=O)C1CCN(C(=O)[C@H](C)NC(=O)C2CC(=O)N(c3ccc(F)cc3)C2)CC1 (some centres undefined)	·	3%	9%	-1.1%
O=C(NCc1ccccc1)[C@@H]1C[C@H]1[C@@H](NP(=O)(c1ccccc1)c1ccccc1)c1ccccc1	4&-23	-2%	21%	0.1%
O=C(/C=C\c1ccc2c(c1)OCO2)Nc1nnc(SCC(=O)OCc2ccccc2)s1	-12	-8%	·	·
CN1CCN(C(=O)COCc2cc(-c3ccc4c(c3)OCO4)on2)CC1	·	-18%	-2%	0.4%
CN1CCN(c2oc(-c3ccccc3Cl)nc2S(=O)(=O)c2ccccc2)CC1	·	1%	0%	?
CC(C)(C)C(=O)Nc1nnc(SCC(=O)NCc2cccs2)s1	11	0%	0%	-0.2%
COc1ccc(S(=O)(=O)N2CN(Cc3ccco3)c3nc4ccccc4nc32)cc1	4	-3%	?	?
CC(=O)Oc1ccc(OC(C)=O)c(SCCCCCCl)c1	3	29%	-9%	-6.9%
Cc1ccnc(NC(=O)c2ccc(NC(=O)c3ccco3)cc2)c1	-3	-35%	8%	0.5%
O=C(CSc1nnc(-c2ccccc2)n1-c1ccc(Cl)cc1)NC1CCS(=O)(=O)C1 (centres undefined)	-18	-37%	25%	1.3%
COc1ccc(CC(=O)NC(C)CCc2ccccc2)cc1 (centres undefined)	3	1%	9%	1.8%
CN(CC(=O)Nc1ccccc1C(F)(F)F)C(=O)C1CCN(S(=O)(=O)c2ccc3c(c2)OCCO3)CC1	·	·	15%	-1.0%
Cc1ccc(NC(=O)CSCc2cc(=O)n3cc(C)sc3n2)cc1	·	0%	0%	-1.4%
O=C(c1ccco1)N1CCN(C(=O)C2CC2)CC1	-5	-4%	17%	2.0%
Fc1cc(F)cc(NC(=S)NN2CCOCC2)c1	5	-1%	-12%	-0.2%
C/C(=N\NC(=O)Cc1cccn1C)c1cccc2ccccc12	-18	-6%	3%	0.8%
COc1ccccc1NC(=O)Nc1nc(CC(=O)Nc2ccccc2F)cs1	·	·	-7%	3.3%
COc1ccc(C)cc1NCC(=O)Nc1ccc(C(C)(C)C)cc1	-15	-6%	-2%	2.2%
Nc1c(-c2ccc(Cl)cc2)cnc2c(-c3ccc(F)cc3)cnn12	·	-66%	-4%	-1.1%
COc1ccc(Cl)cc1C(=O)Nn1cnnc1	·	1%	14%	-2.5%
CC(Oc1ccccc1)C(=O)Nc1ccccc1F (centres undefined)	5	-8%	-4%	-1.7%

Compound profiles, as listed above.
`S=C(NCc1ccccc1)NN1CCOCC1` reads GLA inh pH 4.5 = -8; miR-21 FLuc = -2%; Rango dissoc inh = -2%; Rango complex inh = -1.2%
`CCOc1ccc(N(CC(=O)N2CCCC2)S(=O)(=O)c2ccc(F)cc2)cc1` reads GLA inh pH 4.5 = ·; miR-21 FLuc = -2%; Rango dissoc inh = 13%; Rango complex inh = -0.2%
`COC(C(=O)NC1CC1)c1ccccc1` (centres undefined) reads GLA inh pH 4.5 = 6; miR-21 FLuc = -1%; Rango dissoc inh = 2%; Rango complex inh = -0.5%

Next part.
SMILES	GLA inh pH 4.5	miR-21 FLuc	Rango dissoc inh	Rango complex inh
CCOC(=O)N1CCC(NS(=O)(=O)c2cc(C(=O)OC)n(C)c2)CC1	·	3%	-10%	0.0%
COc1ccc(Cl)cc1Nc1nc2ccc(C)cc2n2cnnc12	·	1%	0%	-0.8%
O=C(Oc1cccc([N+](=O)[O-])c1)c1ccc2c(=O)n3c(nc2c1)CCC3	·	·	-9%	0.6%
Cn1c(=O)c2c(nc(Br)n2CCSc2nnnn2-c2ccccc2)n(C)c1=O	-8	0%	15%	-3.7%
COc1ccc(F)cc1S(=O)(=O)Nc1ccncc1	·	0%	1%	-1.5%
C/C(=N/NC(=O)c1ccncc1)c1ccc(NC(=O)c2ccccc2)cc1	·	-16%	5%	0.3%
COCc1[nH]nc2c1C(c1ccc(OC)c(OC)c1)C(C#N)=C(N)O2 (centres undefined)	2	2%	0%	0.7%
CCOC(=O)C1=C(CS(=O)(=O)c2ccccc2)NC(=O)NC1c1cccc(OC)c1 (centres undefined)	-6	7%	0%	5.9%
O=C(NNc1cc(N2CCOCC2)nc(N2CCOCC2)n1)C12CC3CC(CC(C3)C1)C2	3	-7%	3%	-1.6%
C#CCNC(=O)/C=C/c1ccc(OC)cc1	-1	-61%	-5%	-0.4%
O=C(NCCCN1CCCC1=O)c1cccc(NS(=O)(=O)c2ccc(Br)cc2)c1	·	·	3%	-0.4%
Cn1c(=O)c2c(ncn2CCN(CCO)Cc2ccccc2)n(C)c1=O	-1	-3%	-5%	0.2%
CC(=O)c1ccc(N2CCN(CC(O)COCc3ccco3)CC2)cc1 (centres undefined)	-1	2%	-6%	-4.5%
CCOc1ccc(NC(=O)CCNS(=O)(=O)c2ccc3c(c2)c(=O)n(C)c(=O)n3C)cc1	7	-2%	4%	0.3%
CN(CC(=O)Nc1ccc(Cl)c(C(F)(F)F)c1)C(=O)c1cc(=O)[nH]c2ccccc12	·	·	-2%	-2.7%
COc1ccc(NC(=O)c2cccs2)cn1	2	-36%	16%	-4.7%
Cc1ccc(NCc2nnc(SCCN3CCCCC3)n2CC2CCCO2)c(C)c1 (centres undefined)	-4	-1%	9%	-6.6%
COc1cc(C(=O)Nc2nc3ccccc3s2)ccc1OCc1c(C)noc1C	0	-18%	6%	3.5%
NS(=O)(=O)c1ccc2c(c1)C1C=CCC1C(C1CC=CCC1)N2 (centres undefined)	1	-1%	?	?
Cc1ccc(NC(=S)Nn2cnnc2)cc1	2	-1%	29%	-1.6%
CCCCN1C2=C(C(=O)CC(C)(C)C2)C(c2ccccc2)C2=C1c1ccccc1C2=O (centres undefined)	-3	-4%	-9%	0.2%
CCN1C(=O)/C(=C2\SC(=S)N(CCCOC)C2=O)c2ccccc21	-3	0%	2%	4.4%
COC(=O)c1cc(S(=O)(=O)N2c3ccccc3CC2C)cn1C (centres undefined)	·	-6%	1%	3.3%
Cc1c(Cl)cnc(NC(=O)CSc2nnnn2C)c1Cl	·	·	5%	0.5%
CCOC(=O)c1cc(-c2ccccc2)nn1CC1CC(c2ccc(OC)cc2)=NO1 (centres undefined)	·	·	16%	-4.4%
Additional entries.
SMILES	GLA inh pH 4.5	miR-21 FLuc	Rango dissoc inh	Rango complex inh
O=C(c1ccc2c(c1)OCO2)N(c1ccc(F)cc1)C1C=CS(=O)(=O)C1 (centres undefined)	1	-5%	-7%	-0.8%
CCCCC(CC)CNC(=O)C1C2C=CC(C2)C1C(=O)O (centres undefined)	6	-3%	-11%	-5.9%
O=[N+]([O-])c1ccc(NCCc2ccccc2)c(Br)c1	·	-11%	-4%	3.0%
COC(=O)c1[nH]c2ccccc2c1NC(=O)CN1CCN(c2cccc(Cl)c2)CC1	3	5%	-5%	-0.2%
O=C1c2ccccc2C(=O)N1CCCCSc1nnnn1-c1ccccc1	-2	-3%	1%	4.0%
Cc1ccccc1OCC(=O)N(Cc1ccc(N(C)C)cc1)C1CCS(=O)(=O)C1 (centres undefined)	7	-13%	3%	2.7%
Clc1ccc(-c2nnc(COc3ncnc4ccccc34)o2)cc1	6	-28%	0%	-5.0%
O=C(CN1CCN(Cc2ccccc2)CC1)N/N=C/c1ccco1	2	0%	-3%	-1.9%
Cc1cc2ccccn2c1C(=O)c1ccc(N/N=C/c2ccc(C(=O)O)cc2)c([N+](=O)[O-])c1	-13	-4%	-10%	0.9%
O=S1(=O)CC(NCc2ccccc2)C(Nc2ccc(Cl)cc2)C1 (centres undefined)	-4	-8%	14%	?
Cc1ccc(S(=O)(=O)N2CCOCC2)cc1NC(=O)COC(=O)CNC(=O)c1ccc(C(C)(C)C)cc1	-13	3%	?	?
CCOc1ccccc1OCCC(=O)OCC(=O)Nc1c(C)nn(-c2ccccc2)c1C	·	·	-16%	-0.2%

Some of these compounds in order of number of heavy atoms, low to high:
SMILES	GLA inh pH 4.5	miR-21 FLuc	Rango dissoc inh	Rango complex inh
O=S1(=O)CC(NCc2ccccc2)C(Nc2ccc(Cl)cc2)C1 (centres undefined)	-4	-8%	14%	?
O=C(c1ccc2c(c1)OCO2)N(c1ccc(F)cc1)C1C=CS(=O)(=O)C1 (centres undefined)	1	-5%	-7%	-0.8%
O=C1c2ccccc2C(=O)N1CCCCSc1nnnn1-c1ccccc1	-2	-3%	1%	4.0%
